# Screening data: PubChem BioAssay, Broad Institute
# DUX4 txn inh: DUX4-mediated transcription inhibition | 293T-iDUX4 ZSCAN4-Gaussia luciferase reporter, 24 h; active compounds read low | activity change, negative = inhibition, % (test concentration not listed) | hit rate 0.8% among 37,000;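 active means -10% or lower and over 25 points stronger than a control reporter; inconclusive means -10% or lower with a smaller gap; inactive means above -10%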;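 further: 0% = median of neutral control wells and -100% = median of positive control wells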
# DUX4 txn inh difference: also measured in DUX4 txn inh; calls as there; Gaussia minus Italica difference, %; measured here: selective DUX4 reporter inhibition;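 worked out from the two reporters; negative = selective loss of the DUX4 reporter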
# DUX4 txn inh control: further read-out of DUX4 txn inh, marked with its call; activity change, negative = inhibition, %; measured here: Italica tet-on control reporter;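 0 = neutral control and -100 = positive control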
# * = called active by the depositor; ? = inconclusive; · = not tested or not shown. These rows are one share of the data. The share of hits here may be higher or lower than overall.
SMILES,DUX4 txn inh,DUX4 txn inh difference,DUX4 txn inh control
Cc1ccc(S(=O)(=O)N(C)C[C@@H]2Oc3ncc(Br)cc3C(=O)N([C@H](C)CO)C[C@@H]2C)cc1,0,-2,2.3
CC(=O)N1CC2(C1)[C@@H](c1ccc(-c3cccc(F)c3)cc1)[C@@H](CO)N2CC1CCCC1,?,·,·
CCCN1[C@H](CO)[C@H](c2ccc(C#CC(C)C)cc2)[C@@H]1CN(C)S(C)(=O)=O,-4,-1,-3.3
O=C(C1CC1)N1C[C@@H]2[C@H](c3ccccc31)[C@@H](CO)N2C(=O)c1ccccc1,1,1,-0.4
CC=Cc1ccc2n(c1=O)C[C@@H]1[C@@H](CO)[C@H](C(=O)NCC3CCCCC3)N(C(C)=O)[C@H]21 (mixture of isomers),11,3,7.4
CC(C)[C@H](C)NC(=O)N(C)C[C@@H]1OCc2ccccc2-c2ccccc2C(=O)N([C@H](C)CO)C[C@H]1C,1,6,-5.8
CCNC(=O)C[C@H]1CC[C@@H]2[C@H](COC[C@@H](O)CN2C(=O)Nc2ccc(C(F)(F)F)cc2)O1,5,9,-4.5
C[C@H]1CN([C@@H](C)CO)C(=O)c2cc(-c3ccncc3)cnc2O[C@H]1CN(C)C(=O)CN1CCOCC1,0,-2,2.5
COc1cccc(NC(=O)N2CC(=O)N3[C@H](CO)[C@H](c4ccc(Br)cc4)[C@@H]3C2)c1,5,1,4.0
CN1CCN(C(=O)C[C@H]2CC[C@@H]3[C@H](COC[C@H](O)CN3C(=O)c3ccc(F)cc3)O2)CC1,9,-2,11
COCC(=O)N1CCCCN2[C@@H](CO)[C@H](c3ccc(C#Cc4ccccc4)cc3)[C@@H]2C1,-1,0,-0.7
Cc1cccc(-c2ccc(C3[C@@H]4CNC[C@H]3N4)cc2)c1 (stereo partly specified),-3,-12,8.5
C[C@@H]1CN([C@H](C)CO)C(=O)c2cc(NC(=O)CCCCCC(=O)Nc3ccccc3N)ccc2O[C@H]1CN(C)C(=O)Nc1ccc(C(F)(F)F)cc1,-1,4,-5.7
C[C@@H]1CN([C@H](C)CO)C(=O)c2ccccc2-c2ccccc2CO[C@@H]1CN(C)C(=O)CCN(C)C,1,-8,8.9
CC(=O)N1[C@@H]2c3ccc(-c4cccnc4)c(=O)n3C[C@@H]2[C@@H](CO)[C@@H]1C(=O)NCc1ccccc1Cl,-8,-5,-2.7
COc1ccc(OC(=O)N(C)C[C@@H]2OCc3ccccc3-c3ccccc3C(=O)N([C@@H](C)CO)C[C@H]2C)cc1,4,-3,7.2
COCC(=O)N1C[C@@H]2[C@H](c3ccccc31)[C@@H](CO)N2Cc1cc(F)ccc1F,-1,0,-1.1
C[C@@H]1CN([C@@H](C)CO)C(=O)CCCn2nncc2CO[C@H]1CN(C)Cc1ccccc1C(F)(F)F,-8,-12,4.7
CCC(=O)N1CC[C@@H]2[C@H]1c1cc(C#Cc3cccc(F)c3)ccc1N(C)[C@H]2CO,?,·,·
CN1[C@H](C(=O)NCc2ccccc2F)[C@@H](CO)[C@@H]2Cn3c(ccc(C4=CCCC4)c3=O)[C@@H]21,-1,0,-1.0
CN1C[C@@H](O)COC[C@@H]2O[C@@H](CC(=O)NC3CCCC3)CC[C@H]21,6,2,3.9
COc1cccc(S(=O)(=O)N2CC[C@@H]3[C@H]2c2cc(C4=CCCCC4)ccc2N(C)[C@H]3CO)c1,23,1,22
COc1ccc(S(=O)(=O)Nc2cccc3c2O[C@H](CN(C)S(=O)(=O)c2cn(C)cn2)[C@H](C)CN([C@@H](C)CO)C3=O)cc1,0,2,-1.8
COc1ccc(C#Cc2ccc3c(c2)[C@H]2[C@H](CCN2C(=O)c2ccccn2)[C@@H](CO)N3)cc1,1,0,1.6
N#C[C@@H]1[C@@H](c2ccc(C#CC3CCCC3)cc2)[C@H](CO)N1S(=O)(=O)c1ccccc1,-1,-1,0.8
# The listing continues:
SMILES,DUX4 txn inh,DUX4 txn inh difference,DUX4 txn inh control
C/C=C/c1ccc([C@H]2[C@@H](CNC(C)=O)N(Cc3ccccn3)[C@H]2CO)cc1,3,3,0.1
CC(=O)N1CC[C@H]2[C@@H]1c1cc(-c3ccc(C#N)cc3)ccc1N(C)[C@H]2CO,21,34,-14
COc1ccccc1S(=O)(=O)N(C)C[C@H]1OCc2cnnn2CCCC(=O)N([C@@H](C)CO)C[C@H]1C,8,10,-2.8
CC(C)NC(=O)N1[C@@H](C#N)[C@H](c2ccc(C#CC3CCCCC3)cc2)[C@@H]1CO,-1,-3,1.2
CC[C@H]1C/C=C\C[C@H](c2ccccc2)NC(=O)CCC(=O)N1,1,-1,1.9
C[C@@H]1CN([C@@H](C)CO)C(=O)c2c(c3ccccc3n2C)-c2ccccc2CO[C@H]1CN(C)Cc1ccc(O)cc1,14,12,2.1
CCC(=O)N1[C@@H](CO)[C@@H](c2ccccc2)[C@@H]1CN(C(C)C)S(C)(=O)=O,3,1,2.0
CN(C)C(=O)c1ccc(-c2ccc3c(c2)[C@@H]2[C@@H](CCN2S(=O)(=O)c2cn(C)cn2)[C@@H](CO)N3)cc1,24,25,-0.6
CC(C)CC#Cc1ccc([C@@H]2[C@H]3CN(C(=O)Cc4cccnc4)CC(=O)N3[C@H]2CO)cc1,4,-2,6.1
C[C@@H]1CN([C@@H](C)CO)C(=O)c2cc(NC(=O)c3ccncc3)ccc2O[C@H]1CN(C)CC1CCCCC1,0,0,0.0
COCC(=O)N1CC[C@H]2[C@@H]1c1cc(-c3ccc(OC)cc3)ccc1N(C)[C@H]2CO,20,18,1.6
COc1ccc(NC(=O)N[C@@H]2CC[C@@H](CCNS(=O)(=O)c3cccc(Cl)c3)O[C@H]2CO)cc1,-4,-2,-1.4
O=C(C[C@@H]1C[C@@H]2c3cc(NS(=O)(=O)c4ccc(F)cc4)ccc3O[C@@H]2[C@@H](CO)O1)NCc1cccnc1,5,5,-0.8
N#C[C@H]1[C@@H](c2ccc(C#Cc3cccc(F)c3)cc2)[C@H](CO)N1C(=O)C1CCCC1,5,1,3.8
COCC(=O)N1CC2(C1)[C@H](c1ccc(-c3ccccc3)cc1)[C@@H](CO)N2C(=O)COC,4,3,1.4
CN1CCCCN2[C@H](CO)[C@H](c3ccc(-c4ccccc4)cc3)[C@H]2C1,7,4,3.2
O=C(C[C@H]1C[C@@H]2c3cc(NC(=O)Nc4ccccc4F)ccc3O[C@@H]2[C@@H](CO)O1)NCCc1ccccc1,?,·,·
CN1c2ccc(-c3ccccc3)cc2[C@H]2[C@H](CCN2C(=O)c2ccccc2F)[C@H]1CO,?,·,·
C[C@@H]1CCCCO[C@@H](CN(C)S(=O)(=O)c2ccccc2)[C@@H](C)CN([C@H](C)CO)C(=O)c2cc(NS(C)(=O)=O)ccc2O1,1,-3,4.2
O=C(Nc1ccccc1)[C@@H]1[C@@H](CO)[C@@H]2Cn3c(cccc3=O)[C@H]1N2Cc1ccncc1,-5,-1,-3.4
CN(C)Cc1cn(CC[C@H]2CC[C@H](NS(=O)(=O)c3ccc(-c4ccccc4)cc3)[C@H](CO)O2)nn1,-5,2,-7.1
COC(=O)C[C@H]1CC[C@@H]2[C@H](COc3ccc(NC(=O)c4ccccc4F)cc3C(=O)N2C)O1,2,2,0.6
COCC(=O)N1CCC2(CC1)CN(S(C)(=O)=O)[C@@H](CO)c1c2c2ccc(OC)cc2n1C,12,7,5.1
CO[C@H](CN(C)C(=O)Nc1ccc(F)cc1)[C@H](C)CN(Cc1ccccc1Cl)[C@@H](C)CO,-4,-3,-0.7
O=C(C[C@H]1CC[C@H]2[C@@H](COC[C@@H](O)CN2CC2CCCCC2)O1)NCc1ccc(Cl)cc1,?,·,·

# Gathered by group: the compounds so far containing a CF3 group (three)
SMILES,DUX4 txn inh,DUX4 txn inh difference,DUX4 txn inh control
CCNC(=O)C[C@H]1CC[C@@H]2[C@H](COC[C@@H](O)CN2C(=O)Nc2ccc(C(F)(F)F)cc2)O1,5,9,-4.5
C[C@@H]1CN([C@H](C)CO)C(=O)c2cc(NC(=O)CCCCCC(=O)Nc3ccccc3N)ccc2O[C@H]1CN(C)C(=O)Nc1ccc(C(F)(F)F)cc1,-1,4,-5.7
C[C@@H]1CN([C@@H](C)CO)C(=O)CCCn2nncc2CO[C@H]1CN(C)Cc1ccccc1C(F)(F)F,-8,-12,4.7

# Shown with each value named: entries from further up
CC(C)NC(=O)N1[C@@H](C#N)[C@H](c2ccc(C#CC3CCCCC3)cc2)[C@@H]1CO
  DUX4 txn inh: -1
  DUX4 txn inh difference: -3
  DUX4 txn inh control: 1.2

C/C=C/c1ccc([C@H]2[C@@H](CNC(C)=O)N(Cc3ccccn3)[C@H]2CO)cc1
  DUX4 txn inh: 3
  DUX4 txn inh difference: 3
  DUX4 txn inh control: 0.1

COc1ccccc1S(=O)(=O)N(C)C[C@H]1OCc2cnnn2CCCC(=O)N([C@@H](C)CO)C[C@H]1C
  DUX4 txn inh: 8
  DUX4 txn inh difference: 10
  DUX4 txn inh control: -2.8

CN(C)Cc1cn(CC[C@H]2CC[C@H](NS(=O)(=O)c3ccc(-c4ccccc4)cc3)[C@H](CO)O2)nn1
  DUX4 txn inh: -5
  DUX4 txn inh difference: 2
  DUX4 txn inh control: -7.1

# Further records
SMILES,DUX4 txn inh,DUX4 txn inh difference,DUX4 txn inh control
CCC(=O)N1CCCCN2[C@H](CO)[C@H](c3ccc(-c4cccc(C(=O)N(C)C)c4)cc3)[C@@H]2C1,34,20,14
CO[C@@H]1CN(C)C(=O)c2ccc(NC(=O)c3cccc(F)c3)cc2OC[C@H](C)NC[C@@H]1C,6,0,5.9
CNC(=O)C[C@H]1CC[C@@H]2[C@H](COC[C@H](O)CN2C(=O)c2ccc3c(c2)OCO3)O1,6,3,2.6
CC(=O)N1[C@H](CO)[C@H]2c3ccccc3N(S(=O)(=O)c3ccccc3)C[C@H]21,-2,-2,-0.6
COC(=O)[C@@H]1[C@@H](CO)[C@@H]2Cn3c(ccc(-c4cccc(F)c4)c3=O)[C@@H]2N1S(C)(=O)=O,0,-3,3.6
CCS(=O)(=O)N1CCCCN2[C@@H](CO)[C@H](c3ccc(-c4ccccc4F)cc3)[C@@H]2C1,18,5,13
C[C@@H]1CN([C@@H](C)CO)C(=O)c2cccc(NC(=O)C3CCCCC3)c2O[C@H]1CN(C)C(=O)Nc1ccc(F)cc1,5,3,1.9
C[C@@H]1CN([C@H](C)CO)C(=O)c2cc(NS(=O)(=O)c3cccs3)ccc2O[C@@H]1CN(C)C(=O)Nc1ccc2c(c1)OCO2,-2,0,-2.6
O=C(c1ccccc1)N1CC[C@@H]2[C@H](CO)Nc3ccc(C#CC4CCCCC4)cc3[C@@H]21,-2,-16,14
OC[C@H]1[C@H](c2ccccc2)C2(CN(Cc3ccncc3)C2)N1Cc1ccncc1,6,0,5.7
COc1ccc2c3c(n(C)c2c1)[C@H](CO)N(Cc1ccccc1)CC31CN(S(C)(=O)=O)C1,8,3,5.0
C[C@H](CO)N1C[C@H](C)[C@@H](CN(C)Cc2ccc(C(=O)O)cc2)Oc2ccc(NC(=O)Nc3cccc4ccccc34)cc2CC1=O,-5,-6,0.3
CCC(=O)N1CC2(C1)[C@H](c1ccccc1)[C@H](CO)N2S(=O)(=O)Cc1ccccc1,17,16,1.8
C[C@@H]1CN([C@H](C)CO)C(=O)c2cc(NC(=O)NC3CCCCC3)ccc2O[C@@H]1CN(C)Cc1ccncc1,-1,1,-2.1
COc1ccc(-c2ccc3n(c2=O)C[C@H]2[C@H](CO)[C@@H](C(=O)N(C)C)N(CC4CCOCC4)[C@@H]32)cc1,7,8,-0.9
CCCC(=O)N1CC2(C1)CN(Cc1nccs1)[C@H](CO)c1[nH]c3cc(OC)ccc3c12,8,3,4.2
CCN1[C@@H]2c3ccc(C4=CCCCC4)c(=O)n3C[C@@H]2[C@@H](CO)[C@@H]1C(=O)N(C)C,9,7,2.4
CC=Cc1ccc2n(c1=O)C[C@@H]1[C@@H](CO)[C@H](C(=O)N[C@@H](C)c3ccccc3)N(C(=O)c3ccccn3)[C@H]21 (mixture of isomers),-5,0,-4.2
COCC(=O)Nc1ccc2c(c1)C(=O)N(C)C[C@@H](OC)[C@@H](C)CN(Cc1ccccn1)[C@H](C)CO2,-10,-13,3.2
CO[C@@H]1CN(C)C(=O)c2cc(NS(C)(=O)=O)ccc2OC[C@@H](C)N(C(=O)CC2CC2)C[C@H]1C,2,6,-3.4
COCC(=O)N1[C@H](C#N)[C@@H](c2ccccc2-c2ccccc2F)[C@H]1CO,13,10,3.8
Cc1cccc(-c2ccc([C@H]3[C@H]4CN(C(=O)Cc5ccccn5)CC(=O)N4[C@H]3CO)cc2)c1,5,4,0.6
C[C@@H]1CN([C@H](C)CO)C(=O)CCCn2nncc2CO[C@H]1CN(C)C(=O)Nc1cccc(Oc2ccccn2)c1,5,4,1.1
C[C@@H]1CCCCO[C@H](CN(C)S(=O)(=O)c2cn(C)cn2)[C@@H](C)CN([C@@H](C)CO)C(=O)c2cc(NC(=O)Nc3cccc4ccccc34)ccc2O1,1,3,-2.1
O=C(O)C[C@@H]1C[C@H]2c3cc(NC(=O)Nc4ccc(C(F)(F)F)cc4)ccc3O[C@H]2[C@H](CO)O1,4,6,-1.7
O=C(C[C@H]1CC[C@H]2[C@@H](COC[C@H](O)CN2C(=O)c2ccccc2F)O1)NCc1ccc(F)cc1,18,9,9.9
O=C1CN(S(=O)(=O)c2cccc(F)c2)C[C@@H]2[C@H](c3ccc(C4=CCCC4)cc3)[C@H](CO)N12,-8,-4,-3.4
N#C[C@H]1[C@@H](c2ccc(C3=CCCCC3)cc2)[C@H](CO)N1C(=O)c1ccccn1,-2,-1,-1.5
C[C@H](CO)N1C[C@H](C)[C@@H](CN(C)C(=O)Nc2ccc(C(F)(F)F)cc2)Oc2ccc(NS(=O)(=O)c3ccc(Cl)cc3)cc2CC1=O,-2,4,-5.8
